Mtb betalactam – beta-lactam sensitization of Mtb H37Rv, H37Rv; M. tuberculosis H37Rv growth with meropenem, percent inhibition; hits of this screen are not shown here; inhibition, % at 25 µM; actives 0.27% (n = 330,000); AID 434955, 2010;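 active = about 74% or more and at least 40 points above the plate without the antibiotic, then above 30% in a dose series; inconclusive = first-round hits that could not be retested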;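 also: growth measured after seven days incubation then overnight dye step; 0% = bacteria only wells and 100% = bacteria with antibiotic; twin plates without the antibiotic show which effects depend on it; some results filed as inactive read as strong as hits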
Arbovirus inh – antivirals against arbovirus infection, primary screen, cell-based, full library, 10K replicate subset; actives 0.37% (n = 200,000); arbovirus infection cell-based antiviral screen; inhibition, % at 10 µM;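 active = inhibition from about 30%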;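 also: bluetongue infection of BSR cells; cell survival read as ATP light after 72 h; 0% = infected wells without compound and 100% = uninfected wells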
Mtb H37Rv – M. tuberculosis H37Rv growth inhibitors, H37Rv strain (AID 1626); M. tuberculosis H37Rv growth inhibition; higher % means a stronger effect; inhibition, % at 10 µM; hits with a dose series show IC50 in µM; actives 0.95% (n = 220,000);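 active = confirmed in a dose series; inconclusive = inhibition above 80% but not taken into the dose series; inactive = below 80% or under 30% at every dose of the series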;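 also: bacteria incubated seven days before Alamar blue readout; 0% = bacteria only wells and 100% = bacteria with antibiotic wells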
YopH PTP inh – YopH tyrosine phosphatase inhibitors, primary screen, biochemical, fluorescence Ex485/Em525; YopH tyrosine phosphatase [Yersinia enterocolitica]; AID 898, 2007; inhibition, %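 (about 10 µM by stock and volumes)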; actives 0.16% (n = 140,000);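 active = inhibition of 50% or more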;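 also: controls were vehicle for no effect and minimum signal wells for full effect; inactives centre near -20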
RecA splice inh – Mtb RecA intein splicing inhibitors, primary screen, biochemical, fluorescence, HTS; Protein RecA (Mycobacterium tuberculosis (strain ATCC 25618 / H37Rv)), P9WHJ3; actives 0.75% (n = 290,000); cell-free RecA intein splicing; inhibition, %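 (about 9 µM by stock and volumes)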; in the data active = inhibition above about 30%; inconclusive = no clear call, values can overlap the other calls;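 also: 0% = vehicle wells and 100% = reference inhibitor control wells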
Target sequence (P9WHJ3 whole entry, looked up, canonical isoform): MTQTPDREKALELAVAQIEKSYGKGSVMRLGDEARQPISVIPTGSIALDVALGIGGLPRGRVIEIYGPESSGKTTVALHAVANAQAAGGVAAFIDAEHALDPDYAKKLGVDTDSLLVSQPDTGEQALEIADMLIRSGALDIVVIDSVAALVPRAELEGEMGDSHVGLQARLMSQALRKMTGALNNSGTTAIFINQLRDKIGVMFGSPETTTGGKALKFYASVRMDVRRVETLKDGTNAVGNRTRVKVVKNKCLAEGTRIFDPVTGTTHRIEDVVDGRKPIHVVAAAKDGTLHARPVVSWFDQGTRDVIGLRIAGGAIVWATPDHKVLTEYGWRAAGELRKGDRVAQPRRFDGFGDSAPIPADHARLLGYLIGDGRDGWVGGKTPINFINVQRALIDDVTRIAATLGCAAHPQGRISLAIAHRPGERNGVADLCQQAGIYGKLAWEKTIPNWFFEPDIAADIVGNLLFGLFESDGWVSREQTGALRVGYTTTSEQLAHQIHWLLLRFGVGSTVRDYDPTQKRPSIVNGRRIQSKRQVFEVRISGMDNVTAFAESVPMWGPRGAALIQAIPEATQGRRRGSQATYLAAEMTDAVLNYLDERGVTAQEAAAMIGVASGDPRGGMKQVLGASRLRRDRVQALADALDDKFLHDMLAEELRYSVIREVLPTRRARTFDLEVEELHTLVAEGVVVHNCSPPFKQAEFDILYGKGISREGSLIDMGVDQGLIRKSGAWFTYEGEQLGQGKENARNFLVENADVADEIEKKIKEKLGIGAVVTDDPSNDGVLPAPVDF
Arbovirus inh repeat – second read-out of Arbovirus inh, no call of its own (marks repeat the call); inhibition, %; measured here: 10K subset replicate screen; many hits read low in the repeat;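 first of two repeat runs on a subset; 0% = infected and 100% = uninfected wells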
An asterisk follows results filed as active; ? = inconclusive; . = no result given. This is a subset. The share of hits here may be higher or lower than overall.

SMILES | Mtb betalactam | Arbovirus inh | Mtb H37Rv | YopH PTP inh | RecA splice inh | others
CCOC(=O)/C(C#N)=C/c1ccc(OC)c(OC)c1 | 7 | 7 | 2% | -3 | -0.2
Cc1n[nH]c(C)c1SCC(=O)Nc1ccc(F)cc1 | -2 | 3 | -5% | -28 | 0.6
COc1ccc(N2CC(C(=O)NC3=NCCS3)CC2=O)cc1 (configuration not stated) | -4 | 3 | 1% | . | -0.3
COc1ccc2c(C=O)cn(C)c2c1 | 47 | -3 | -3% | . | 0.6
O=C(CC1OCC2CCCN2C1=O)Nc1ccc([N+](=O)[O-])cc1 (configuration not stated) | -7 | . | . | . | -0.1
COC(=O)C1CN(S(=O)(=O)c2ccc(NC(C)=O)cc2)CCS1 (configuration not stated) | 9 | . | . | . | -0.4
Cc1ccc(C(=O)NC2CCCN(c3ccc(C(F)(F)F)cn3)C2)cn1 (configuration not stated) | 2 | . | . | . | -2.2
COc1cc(CNC(=O)C2CCCC2)cc(OC)c1OC | 2 | . | . | . | -1.2
CCOc1ccc(NC(=O)CCC(=O)c2ccc(Br)cc2)cc1 | 95 | . | . | . | 1.4
CCOc1ccc(N(C(=O)CNC(=O)c2ccco2)C(C(=O)NC2CCCC2)c2cccnc2)cc1 (configuration not stated) | -4 | . | . | . | -1.2
CCN(C(=O)Cn1c(=O)oc2ccccc21)c1cccc(C(F)(F)F)c1 | -2 | 8 | 4% | -43 | 0.4
Clc1ccc(Cc2ccccc2)nn1 | -6 | 1 | -13% | -12 | -3.7
N#CC1(NC(=O)COc2ccccc2[N+](=O)[O-])CCCCC1 | -6 | . | . | . | 0.3
CCCCNC(=O)c1ccccc1NC(=O)CCC | 4 | -2 | -11% | . | -1.6
O=C(NNC1=NS(=O)(=O)c2ccccc21)c1cccc([N+](=O)[O-])c1 | 3 | . | . | . | -0.6
O=C(CN1C(=O)COc2ccccc21)NNC(=O)Nc1ccccc1F | 0 | . | . | . | 1.2
COc1cc(CCCN2C(=O)C(=O)NC[C@@H]2c2ccccc2)cc(OC)c1OC | -8 | . | -4% | . | -1.3
Cc1cnc(C(=O)OCC(=O)N2CCc3ccccc32)cn1 | 94 | 4 | 9% | . | 0.9
COc1ccc(OCCNC(=O)c2ccc(C)cc2)cc1 | 6 | . | . | . | -1.2
C/C(=N/NS(C)(=O)=O)c1ccc2ccccc2c1 | -4 | -1 | -2% | -14 | 2.2
NC1=NC[C@@H](Cc2ccc(O)cc2)N1CCC12CC3CC(CC(C3)C1)C2 | -2 | . | 20% | . | 3.1
C=CCc1ccc(OC(=O)NC2CCCCC2)c(OC)c1 | 4 | . | . | . | 9.0
CCC(C(=O)NC1CCN(C)CC1)c1ccccc1 (configuration not stated) | -8 | . | . | . | 0.4
Cc1c(Cl)cccc1NC(=O)[C@@H](NC(=O)c1ccccc1Cl)C(C)C | 5 | -8 | 10% | 12 | -0.6
CCNS(=O)(=O)c1ccc(NC(=O)Cn2cc([N+](=O)[O-])cn2)cc1 | -7 | 7 | 9% | . | 0.4

The list goes on, starting with the last three of the part before.
SMILES | Mtb betalactam | Arbovirus inh | Mtb H37Rv | YopH PTP inh | RecA splice inh | others
CCC(C(=O)NC1CCN(C)CC1)c1ccccc1 (configuration not stated) | -8 | . | . | . | 0.4
Cc1c(Cl)cccc1NC(=O)[C@@H](NC(=O)c1ccccc1Cl)C(C)C | 5 | -8 | 10% | 12 | -0.6
CCNS(=O)(=O)c1ccc(NC(=O)Cn2cc([N+](=O)[O-])cn2)cc1 | -7 | 7 | 9% | . | 0.4
Cc1cc(=O)n(CCCc2ccccc2)[nH]1 | -12 | . | . | . | 92*
COc1cc(/C=C(\C#N)C(=O)Nc2cccc(C(=O)O)c2)ccc1OCc1ccc(Cl)cc1 | 78 | . | . | . | -12
Cc1cccc(NC(=O)NC2(C(=O)NCc3ccco3)CCCCC2)c1 | -5 | . | . | . | -12
O=C(CNC(=S)N(Cc1ccccc1)Cc1cccs1)NCc1ccc(F)cc1 | . | -19 | 13% | . | 6.4
O=C(NC1CC1)c1c(O)c2ccccc2[nH]c1=O | 1 | . | . | . | -2.5
Cc1ccc(C(=O)C2CCN(CC(=O)NCc3ccc(F)cc3)CC2)cc1 | 1 | . | . | . | -2.7
CC1(C)Cc2c(cnn2-c2ccc(F)cc2)C(NC(=O)c2ccco2)C1 (configuration not stated) | -8 | . | . | . | 4.1
CC(C)n1c(-c2ccc(C(C)(C)C)cc2)n[nH]c1=S | . | 3 | -2% | -9 | -0.9
CC(=O)Nc1nonc1NC(=O)c1ccc(C(C)(C)C)cc1 | -2 | -1 | -1% | -5 | 4.1
Cc1ccc(C(=O)Nc2scc(-c3ccccc3)c2C(=O)O)o1 | 4 | 62* | 2% | . | 1.5
C=CCN1C(=O)/C(=C\c2ccc(Cl)cc2)N=C1SCC(=O)NC1CCCCC1 | -10 | -1 | -2% | 15 | -2.3
CCS(=O)(=O)Nc1ccc(-c2cc(-c3ccccc3)c3cc(C)ccc3n2)cc1 | 97 | -32 | 9.2µM* | -17 | 6.6
Cn1c(=O)c2c(nc(Oc3ccc4c(c3)OCO4)n2Cc2ccc(Cl)cc2)n(C)c1=O | -2 | -27 | 9% | -4 | 0.2
O=C(NCCCN1CCOCC1)c1ccc(Cl)c(S(=O)(=O)N2CCCCCC2)c1 | -30 | 1 | 0% | -21 | 2.0
COCCNc1nc(N)c([N+](=O)[O-])c(NC2CCCCC2)n1 | 1 | . | . | . | -0.8
Cc1ccc(OCC(=O)N(Cc2ccc(N(C)C)cc2)C2CCS(=O)(=O)C2)cc1C (configuration not stated) | -9 | . | -10% | . | -1.9
Cc1ccc2oc(=O)c3cnn(CC(=O)NCCC(C)C)c3c2c1 | -3 | 4 | 1% | -28 | 1.8 | Arbovirus inh repeat=1
CC(=O)Nc1ccc(NC(=O)C(C)NC(C)c2cccc3ccccc23)cc1 (configuration not stated) | -5 | . | . | . | 1.7
CC(=O)OCC[C@H](NS(=O)(=O)OCC(Cl)(Cl)Cl)c1ccccc1 | -7 | . | . | . | 2.3
CCCNC(=O)c1c(Cl)cnn1-c1ccc(C)cc1 | -2 | -6 | 7% | . | .
CCOC(=O)c1sc(/N=C/C2=C(O)CC(C)(C)CC2=O)c(C(=O)OCC)c1C | -1 | -15 | -5% | . | 0.3
COc1ccc(CN2C(=O)c3cccnc3C2=O)cc1S(=O)(=O)NC1CCCCC1C (configuration not stated) | -7 | . | . | . | -2.6
Cc1ccccc1NC(=O)CSc1nnc2ccc(-c3ccccn3)nn12 | -6 | . | . | . | -1.7
O=C(N/N=C/c1ccc(Cl)cc1Cl)c1ccncc1 | 99 | . | . | . | 1.5
Cc1ccc(-c2nc(CS(=O)CC(=O)N3CCN(c4ncccn4)CC3)c(C)o2)cc1 (configuration not stated) | 4 | 0 | . | . | 1.4 | Arbovirus inh repeat=15
The list continues.
SMILES | Mtb betalactam | Arbovirus inh | Mtb H37Rv | YopH PTP inh | RecA splice inh | others
O=C(c1cccs1)N1CCN(Cc2ccccc2[N+](=O)[O-])CC1 | 7 | -1 | -4% | -15 | 2.8
O=C(/C=C/c1ccco1)N/C(=C\c1ccccc1)C(=O)NCCc1nc2ccccc2[nH]1 | 1 | 0 | 4% | -5 | 6.3
O=C(CSc1ccc(-c2nc3ccccc3[nH]2)cn1)Nc1ccc(S(=O)(=O)N2CCCC2)cc1 | 2 | 6 | 0% | -15 | -0.7
CCOC(=O)c1c(CSC(=N)N)n(-c2ccc(Br)cc2)c2cc(Br)c(OC(C)=O)cc12 | . | -35 | ? | -22 | .
CCOC(=O)NC1C=CS(=O)(=O)C1 (configuration not stated) | -9 | 4 | -7% | -33 | -0.8
Cc1ccc(S(=O)(=O)Nc2cccc(C(=O)N3CCOCC3)c2)c(C)c1NS(C)(=O)=O | -11 | . | . | . | -2.2
O=C(NCc1ccco1)c1ccccc1 | 6 | . | . | . | -0.9
COc1ccccc1N1CCN(C(=O)CCc2nnc3ccc(N4CCCC4)nn23)CC1 | -4 | . | . | . | -5.6
CCOC(=O)COc1ccccc1C1Nc2ccccc2C(=O)N1c1cccc(Cl)c1 (configuration not stated) | 10 | -3 | -4% | 3 | 4.3
CC(C)c1ccc(N2C(=O)[C@@H]3Cc4ccccc4CN3C2=O)cc1 | -3 | -4 | 4% | -46 | 0.8
N/C(=N\S(=O)(=O)c1ccc(Cl)cc1)N1CCOCC1 | 0 | . | -5% | . | 0.3
CCOC(=O)c1c(Nc2ccccc2N)cc(C)nc1C | -4 | 1 | -5% | -15 | -6.1
CCOC(=O)C1=c2/c(=C/c3ccccc3OC)c(N)c(C#N)n2C(=O)C(c2ccccc2OC)S1 (configuration not stated) | . | -12 | . | 0 | 1.3
O=C(CCSc1nnc2ccc3ccccc3n12)Nc1ccc(F)cc1 | -10 | -4 | 1% | -26 | 0.3
O=C(c1ccc2snnc2c1)N1CCN(c2ccccn2)CC1 | -20 | 0 | -4% | -12 | -1.2
Cc1ccnc(NCc2ccc(Cl)cc2)c1 | 1 | . | . | . | 1.1
CCC1CCCCN1CCCNC(=O)CCNC(=O)Cn1cnc2ccccc2c1=O (configuration not stated) | 5 | . | . | . | 0.1
CCn1nc(C(=O)Nc2ccc(S(=O)(=O)Nc3nccs3)cc2)c2ccccc2c1=O | 8 | 6 | . | -8 | 1.4
Cc1cc(C)nc(Oc2ccc(Br)cc2Br)n1 | -1 | -5 | 1% | . | -8.2
O=C(NCc1ccccc1)[C@H]1C[C@@H]1[C@H](NP(=O)(c1ccccc1)c1ccccc1)c1ccccc1 | -4 | -1 | -2% | -16 | 1.8
CS(=O)(=O)N(CC(=O)NC1CCCC1)c1ccc(Oc2ccccc2)cc1 | 14 | 1 | -4% | . | -0.6
O=c1oc2ccccc2c(NC2CCCCC2)c1NS(=O)(=O)c1ccc(F)c(Cl)c1 | -2 | . | . | . | 2.4
Cc1cc(C)c(C)c(S(=O)(=O)N2CCN(C(=O)CCc3nc4ccccc4c(=O)[nH]3)CC2)c1C | -8 | . | . | . | 1.3
CC(C)(C)c1ccc(C(=O)NC(=S)NCC2CCCO2)cc1 (configuration not stated) | 13 | 40* | 19% | -23 | 3.7
Cc1cccc(C)c1NC(=S)N(Cc1ccco1)C1CCN(C(C)C)CC1 | -5 | 2 | -2% | 0 | 0.2

Overlap with the part before: five compounds; new compounds follow.
SMILES | Mtb betalactam | Arbovirus inh | Mtb H37Rv | YopH PTP inh | RecA splice inh | others
CS(=O)(=O)N(CC(=O)NC1CCCC1)c1ccc(Oc2ccccc2)cc1 | 14 | 1 | -4% | . | -0.6
O=c1oc2ccccc2c(NC2CCCCC2)c1NS(=O)(=O)c1ccc(F)c(Cl)c1 | -2 | . | . | . | 2.4
Cc1cc(C)c(C)c(S(=O)(=O)N2CCN(C(=O)CCc3nc4ccccc4c(=O)[nH]3)CC2)c1C | -8 | . | . | . | 1.3
CC(C)(C)c1ccc(C(=O)NC(=S)NCC2CCCO2)cc1 (configuration not stated) | 13 | 40* | 19% | -23 | 3.7
Cc1cccc(C)c1NC(=S)N(Cc1ccco1)C1CCN(C(C)C)CC1 | -5 | 2 | -2% | 0 | 0.2
CCS(=O)(=O)N1CCC(C(=O)Oc2ccccc2)CC1 | 31 | . | . | . | 1.7
CCN(CC)C(=O)CN1C(=O)C2CC=C(Cl)CC2C1=O (configuration not stated) | 5 | -5 | . | -38 | -2.0
O=C(Nc1ccc(Cl)cc1)N1CCC(c2nc(-c3ccc(F)cc3)no2)CC1 | -15 | 5 | 3% | -22 | -4.5
CCOc1cccc(C(=O)Nc2ccccc2C(=O)N2CCN(C)CC2)c1 | -5 | . | . | . | -2.4
O=C(C1CCN(c2ncnc3c2nc2n3CCCCC2)CC1)N1CCN(c2ccccc2F)CC1 | 97 | . | . | . | -2.3
COc1ccc(-c2cc(C(=O)N3CCCC3)c3ccccc3n2)cc1OC | -7 | . | . | . | 1.2
CCc1cc2c(NCc3ccco3)ncnc2s1 | 1 | 2 | -20% | -31 | 1.9
O=S(=O)(c1ccc(F)c(F)c1F)N1CCN(C(=S)Nc2ccccc2)CC1 | 2 | 11 | 7% | . | 0.1
Cc1csc(NC(=O)/C=C/c2ccc3c(c2)OCO3)n1 | 7 | -41 | -1% | -7 | 0.6
CCc1cc(=O)oc2cc(OCC(=O)NC3CC(C)(C)NC(C)(C)C3)ccc12 | 8 | . | . | . | -2.5
COc1ccccc1N(C)S(=O)(=O)c1ccc(Cl)c(C(=O)NNC(=O)c2ccccc2O)c1 | 2 | . | . | . | 27

Compound activity as filed in PubChem.
